From PubChem
PrP UTR inh: suppresses PrP 5' UTR mRNA reporter expression | cell-based PrP 5' UTR mRNA reporter, plate reader | inhibition, % (no concentration beside the values) | 340,000 compounds, 0.35% hits | AID 488862;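 active means every replicate at 50% or more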;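 further: 0 = median of the neutral control wells; tested in H4 reporter cells; numbers are from one replicate; inactives centre near -14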
BJeLR lethal: kills HRASV12-expressing BJeLR cells | BJeLR (HRASV12) viability, CellTiter-Glo ATP luminescence, 48 h; reference of the scale not given here | inhibition, % (no concentration beside the values) | 300,000 compounds, 0.17% hits | AID 1554;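 active means replicate mean above 50%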;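 further: 50 nL library stock added to about 25 µL; numbers are from one replicate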
Sa RN4220 lethal: S. aureus RN4220 growth inhibition. OD600, 16 h. inhibition, % (concentration not given with the values). AID 1259311. 330,000 compounds, 0.33% hits;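 active means z-score of -3 or lower and OD600 up to 0.18 on both plates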;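 further: plate controls were untreated cells for no effect and reference antibiotic for full effect; stock transfer was 100 nL into about 80 µL; one replicate is shown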
Mtb hypoxia inh: Mtb hypoxia fluorescent reporter inhibition; M. tuberculosis hypoxia-regulated fluorescent reporter, fluorescence; fluorescence inhibition, % (no concentration beside the values); 300,000 compounds, 0.1% hits; AID 1159583;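 active means 35 to 45% if threefold the growth effect, above 45% if 1.5-fold the growth effect; inactive means the rest, general growth blockers included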;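 further: wells of about 50 µL received 100 nL stock; 0% = vehicle wells and 100% = reference inhibitor wells; whole bacteria with a GFP reporter of the hypoxia response; strong numbers were not always called active; many hits fall short of the cut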
ugtP null kill: growth inhibition of S. aureus ugtP deletion strain | S. aureus RN4220 ugtP deletion, OD600 growth, 16 h; some inactives read as strong as hits | growth inhibition, % (no concentration beside the values) | 330,000 compounds, 0.54% hits | AID 1259309;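 active means z-score under -3 and OD600 up to 0.15 on both plates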;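 further: plate controls were untreated wells for no effect and antibiotic for full effect; wells of about 80 µL received 100 nL stock; the first replicate is given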
Autofluor counter: flagged as autofluorescent in microsphere protease counterscreen; fluorescence intensity (test concentration not listed); 360,000 compounds, 3.1% hits; compound autofluorescence counterscreen, microsphere flow cytometry; hits give high values; AID 624483;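 active means at least 3 SD above the mean of all compounds, about 16000 in these data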;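 further: 100 nL of 1 mM stock went into each well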
Mtb hypoxia inh growth: further read-out of Mtb hypoxia inh, marked with its call; growth inhibition, %; measured here: M. tuberculosis growth (absorbance);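 0% = vehicle and 100% = reference antibiotic; read after six days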
An asterisk follows results filed as active. Compounds were not picked by outcome; any-hit rate near 4%.

Results for CN(C)CCOc1cccc(Cl)c1 ?
PrP UTR inh: -23.5; BJeLR lethal: -3.5; Sa RN4220 lethal: -0.1; Mtb hypoxia inh: 8.2; ugtP null kill: 3.9; Autofluor counter: 2098; Mtb hypoxia inh growth: 1.0

What do the screens show for `O=C(CN1CCCSc2ccccc21)N1CCN(S(=O)(=O)c2cccc(F)c2)CC1`?
PrP UTR inh: -22.8; Sa RN4220 lethal: 6.4; Mtb hypoxia inh: 5.1; ugtP null kill: 5.1; Autofluor counter: 9376; Mtb hypoxia inh growth: -1.3

How did O=C(COC(=O)Cc1ccsc1)Nc1ccc(Cl)cc1F do in these assays?
PrP UTR inh: 5.1; Sa RN4220 lethal: 5.3; Mtb hypoxia inh: 1.9; ugtP null kill: 5.0; Autofluor counter: 3685; Mtb hypoxia inh growth: 7.5

What do the screens show for `COc1ccc(-n2c(COc3cccc(C)c3)nnc2SCC(=O)NCc2ccco2)cc1`?
PrP UTR inh: -4.1; BJeLR lethal: 10.2; Sa RN4220 lethal: 7.7; Mtb hypoxia inh: 18.9; ugtP null kill: 0.7; Autofluor counter: 8411; Mtb hypoxia inh growth: 13.2

What do the screens show for `COc1ccc(COC(=O)Nc2cn(C)nc2C(F)(F)F)cc1`?
PrP UTR inh: -13.7; BJeLR lethal: -7.2; Sa RN4220 lethal: 6.3; Mtb hypoxia inh: -5.1; ugtP null kill: 7.5; Autofluor counter: 4262; Mtb hypoxia inh growth: -5.9

Results for CS(=O)(=O)N1CCC(C(=O)N2CCc3ccccc3C2)CC1 ?
PrP UTR inh: -16.5; BJeLR lethal: -3.5; Sa RN4220 lethal: 6.6; Mtb hypoxia inh: 13.7; ugtP null kill: 8.3; Autofluor counter: 9548; Mtb hypoxia inh growth: 1.0

What do the screens show for `CCOC(=O)c1ccc(NC(=O)c2ccccc2N(C)S(=O)(=O)c2ccccc2)cc1`?
PrP UTR inh: -10.1; BJeLR lethal: -0.4; Sa RN4220 lethal: -1.9; Mtb hypoxia inh: -2.3; ugtP null kill: 3.0; Autofluor counter: 7732; Mtb hypoxia inh growth: 10.2

What do the screens show for `O=C1CN(C(=O)COC(=O)c2ccccc2Br)c2ccccc2N1`?
PrP UTR inh: -13.2; Sa RN4220 lethal: 1.1; Mtb hypoxia inh: 6.3; ugtP null kill: 2.2; Autofluor counter: 3842; Mtb hypoxia inh growth: 10.9

What do the screens show for `CC(=O)n1nc(-c2cccc(C)c2)nc1SCC(=O)Nc1ccccc1`?
PrP UTR inh: -11.6; BJeLR lethal: 4.9; Sa RN4220 lethal: 12.9; Mtb hypoxia inh: 7.3; ugtP null kill: -12.2; Autofluor counter: 4202; Mtb hypoxia inh growth: -1.5

Results for COc1ccccc1NC(=O)CCC(=O)O ?
PrP UTR inh: -29.5; BJeLR lethal: 6.6; Sa RN4220 lethal: 1.6; Mtb hypoxia inh: 1.2; ugtP null kill: -3.5; Autofluor counter: 5907; Mtb hypoxia inh growth: -8.8

What do the screens show for `CC(Oc1cccc(NC(=O)c2cccs2)c1)C(=O)c1ccccc1` (centres undefined)?
PrP UTR inh: -9.4; BJeLR lethal: -2.0; Sa RN4220 lethal: 12.4; Mtb hypoxia inh: 8.3; ugtP null kill: 8.6; Autofluor counter: 1957; Mtb hypoxia inh growth: -5.2

Results for COC(=O)CC(NS(=O)(=O)c1cccs1)c1cccc2ccccc12 (centres undefined) ?
PrP UTR inh: -12.1; BJeLR lethal: -5.3; Sa RN4220 lethal: 18.6; Mtb hypoxia inh: 1.6; ugtP null kill: -3.8; Autofluor counter: 4341; Mtb hypoxia inh growth: 7.2

What do the screens show for `O=C(NCCC1=CCCCC1)C1CCC(CNS(=O)(=O)c2ccccc2)CC1` (centres undefined)?
PrP UTR inh: -14.3; BJeLR lethal: 13.7; Sa RN4220 lethal: 3.1; Mtb hypoxia inh: 3.6; ugtP null kill: -1.1; Autofluor counter: 9839; Mtb hypoxia inh growth: 5.6

Results for NC(=O)CSc1nnc(Cc2ccc3c(c2)OCO3)o1 ?
PrP UTR inh: -18.9; BJeLR lethal: 3.2; Sa RN4220 lethal: 6.5; Mtb hypoxia inh: 12.2; ugtP null kill: -3.9; Autofluor counter: 4148; Mtb hypoxia inh growth: 9.8

What do the screens show for `Cc1cccc(OCCCC(=O)Nc2ccc(S(N)(=O)=O)cc2)c1C`?
PrP UTR inh: -1.9; BJeLR lethal: 3.4; Sa RN4220 lethal: 5.3; Mtb hypoxia inh: 11.3; ugtP null kill: 9.8; Autofluor counter: 2401; Mtb hypoxia inh growth: 9.8

What do the screens show for `CN(C(=O)CSc1nnc(-c2cccnc2)n1-c1ccccc1F)C1CCS(=O)(=O)C1` (centres undefined)?
PrP UTR inh: -21.0; BJeLR lethal: 1.4; Sa RN4220 lethal: 4.2; Mtb hypoxia inh: -0.7; ugtP null kill: 3.2; Autofluor counter: 4311; Mtb hypoxia inh growth: 6.6

What do the screens show for `COc1ccc(N(CC(=O)N/N=C/c2ccc(OC)c(OC)c2)S(=O)(=O)c2ccccc2)cc1`?
PrP UTR inh: -18.2; BJeLR lethal: -7.6; Autofluor counter: 3596

Results for CC1CC(=O)c2cnc(NCc3ccco3)nc2C1 (centres undefined) ?
PrP UTR inh: -5.0; BJeLR lethal: -8.2; Sa RN4220 lethal: -0.6; ugtP null kill: 1.2; Autofluor counter: 4324

What do the screens show for `CCOC(=O)c1ccc(-c2c(-c3ccc4c(c3)OCO4)noc2C)cc1F`?
PrP UTR inh: -24.1; BJeLR lethal: 1.4; Sa RN4220 lethal: -2.9; Mtb hypoxia inh: 5.6; ugtP null kill: 22.7; Autofluor counter: 4211; Mtb hypoxia inh growth: -1.5

What do the screens show for `O=c1cccc2n1CC1CC2CN(Cc2ccc3c(c2)OCO3)C1` (centres undefined)?
PrP UTR inh: -14.4; BJeLR lethal: 2.3; Sa RN4220 lethal: 0.0; Mtb hypoxia inh: -11.4; ugtP null kill: -5.0; Autofluor counter: 6111; Mtb hypoxia inh growth: 0.5

Filtered by structure, the entries above with a Cl atom (2)
Results for CN(C)CCOc1cccc(Cl)c1 ?
PrP UTR inh: -23.5; BJeLR lethal: -3.5; Sa RN4220 lethal: -0.1; Mtb hypoxia inh: 8.2; ugtP null kill: 3.9; Autofluor counter: 2098; Mtb hypoxia inh growth: 1.0

How did O=C(COC(=O)Cc1ccsc1)Nc1ccc(Cl)cc1F do in these assays?
PrP UTR inh: 5.1; Sa RN4220 lethal: 5.3; Mtb hypoxia inh: 1.9; ugtP null kill: 5.0; Autofluor counter: 3685; Mtb hypoxia inh growth: 7.5

(more compounds)
How did O=C(C1=C(O)C(=O)N(CC2CCCO2)C1c1ccccc1Cl)c1ccco1 (centres undefined) do in these assays?
PrP UTR inh: -19.6; BJeLR lethal: -3.1; Sa RN4220 lethal: 7.1; Mtb hypoxia inh: -3.9; ugtP null kill: 1.3; Autofluor counter: 2913; Mtb hypoxia inh growth: 0.2

Results for COc1cc(F)c(C(=O)NC(C)(C)CO)cc1OC ?
PrP UTR inh: -17.5; BJeLR lethal: -3.8; Sa RN4220 lethal: 2.3; Mtb hypoxia inh: 5.5; ugtP null kill: 0.4; Autofluor counter: 3975; Mtb hypoxia inh growth: -1.1

Results for CC(C)N(C)Cc1nnnn1CC(=O)N(C)Cc1ccc(F)cc1 ?
PrP UTR inh: -2.3; BJeLR lethal: -5.8; Sa RN4220 lethal: 2.0; Mtb hypoxia inh: -7.1; ugtP null kill: 2.5; Autofluor counter: 3641; Mtb hypoxia inh growth: 5.0

Results for COc1ccccc1N(CC(=O)N/N=C/c1ccc(SC)cc1)S(C)(=O)=O ?
PrP UTR inh: 3.1; BJeLR lethal: 20.5; Autofluor counter: 9074

How did COC(=O)C(Cc1cnc(Cl)s1)(C(=O)OC)c1ccc([N+](=O)[O-])cc1[N+](=O)[O-] do in these assays?
PrP UTR inh: -16.2; BJeLR lethal: 0.4; Sa RN4220 lethal: 1.7; ugtP null kill: 5.2; Autofluor counter: 4514

Results for Cc1ccc(S(=O)(=O)N2CCCC2)cc1C(=O)N1CCN(Cc2ccccc2)CC1 ?
PrP UTR inh: -5.2; BJeLR lethal: -6.8; Sa RN4220 lethal: 0.6; Mtb hypoxia inh: 2.4; ugtP null kill: 3.4; Autofluor counter: 5895; Mtb hypoxia inh growth: -0.3

Results for Cc1ccccc1NC(=O)c1cc2ccccn2n1 ?
PrP UTR inh: -17.3; BJeLR lethal: -5.3; Sa RN4220 lethal: 2.2; Mtb hypoxia inh: -14.1; ugtP null kill: 0.8; Autofluor counter: 4492; Mtb hypoxia inh growth: -1.7

Results for O=C(CN1C(=O)NC2(CCCCC2)C1=O)Nc1ccc(S(=O)(=O)N2CCOCC2)cc1 ?
PrP UTR inh: 4.0; BJeLR lethal: 3.6; Sa RN4220 lethal: 1.1; Mtb hypoxia inh: 11.4; ugtP null kill: 7.4; Autofluor counter: 3520; Mtb hypoxia inh growth: 5.9

Results for N#CCP(=S)(c1ccccc1)c1ccccc1 ?
PrP UTR inh: -8.8; BJeLR lethal: 4.7; Sa RN4220 lethal: 6.6; Mtb hypoxia inh: 4.2; ugtP null kill: 1.2; Autofluor counter: 2025; Mtb hypoxia inh growth: -2.9

How did Oc1ccc(C=NN2CCCCC2)c(O)c1 do in these assays?
Sa RN4220 lethal: 7.9; Mtb hypoxia inh: 8.2; ugtP null kill: 9.4; Mtb hypoxia inh growth: 0.4

What do the screens show for `CN(C)c1nc(OCCOC(=O)Nc2ccc(Cl)cc2Cl)nc(N(C)C)n1`?
PrP UTR inh: -6.1; BJeLR lethal: 1.9; Sa RN4220 lethal: 6.9; Mtb hypoxia inh: 3.9; ugtP null kill: 1.8; Autofluor counter: 8262; Mtb hypoxia inh growth: -3.5

What do the screens show for `O=C(CCN1CCN(CCO)CC1)Nc1ccccc1`?
PrP UTR inh: -31.3; BJeLR lethal: -5.4; Sa RN4220 lethal: -0.1; Mtb hypoxia inh: 19.7; ugtP null kill: 6.4; Autofluor counter: 3918; Mtb hypoxia inh growth: -4.4

How did CCCCNC(=O)C1CC(c2ccccc2[N+](=O)[O-])=NO1 (centres undefined) do in these assays?
PrP UTR inh: -21.1; BJeLR lethal: -2.9; Sa RN4220 lethal: 6.5; Mtb hypoxia inh: 5.9; ugtP null kill: 1.1; Autofluor counter: 3570; Mtb hypoxia inh growth: 9.4

What do the screens show for `N#CC(=C=[N-])C1=C(C#N)C(c2ccccc2F)C([n+]2ccccc2)C(O)(C2CC2)N1` (centres undefined)?
PrP UTR inh: 1.4; BJeLR lethal: 5.0; Sa RN4220 lethal: 6.1; Mtb hypoxia inh: 3.3; ugtP null kill: 0.8; Autofluor counter: 11365; Mtb hypoxia inh growth: 3.8

What do the screens show for `O=C(NCc1ccc(Cl)cc1)C1CCN(C(=O)c2ccco2)CC1`?
PrP UTR inh: -6.6; BJeLR lethal: 0.1; Sa RN4220 lethal: 5.5; Mtb hypoxia inh: -1.9; ugtP null kill: 2.8; Autofluor counter: 4636; Mtb hypoxia inh growth: -5.3

How did O=C(NCC(=O)N1CCN(S(=O)(=O)c2cccs2)CC1)c1ccc(Cl)cc1 do in these assays?
PrP UTR inh: -31.8; BJeLR lethal: 3.9; Sa RN4220 lethal: 0.7; Mtb hypoxia inh: 5.7; ugtP null kill: 3.0; Autofluor counter: 2621; Mtb hypoxia inh growth: 6.4

What do the screens show for `Cn1c2ccccc2c2ncn(Cc3ccc(F)cc3)c(=O)c21`?
PrP UTR inh: -8.8; BJeLR lethal: 1.8; Sa RN4220 lethal: 3.4; Mtb hypoxia inh: -1.5; ugtP null kill: 1.2; Autofluor counter: 4372; Mtb hypoxia inh growth: 12.1

How did O=[N+]([O-])c1cccc(C=NN2CCN(c3ccccn3)CC2)c1 do in these assays?
Sa RN4220 lethal: 3.8; Mtb hypoxia inh: 3.7; ugtP null kill: 4.8; Mtb hypoxia inh growth: -1.6

How did CCOc1ccc2oc(C(=O)NN3C(C)CCCC3C)c(C)c2c1 (centres undefined) do in these assays?
PrP UTR inh: -6.9; BJeLR lethal: -3.1; Sa RN4220 lethal: 5.0; Mtb hypoxia inh: -9.8; ugtP null kill: 4.2; Autofluor counter: 4272; Mtb hypoxia inh growth: -0.6

How did O=C1NC(c2ccccc2)=C(c2ccc3ccccc3n2)C(c2ccncc2)N1 (centres undefined) do in these assays?
PrP UTR inh: -12.7; BJeLR lethal: -0.4; Sa RN4220 lethal: 5.7; Mtb hypoxia inh: 2.6; ugtP null kill: 3.9; Autofluor counter: 8776; Mtb hypoxia inh growth: 5.5
